Assay outcomes (PubChem)
Menin-MLL FL inh – menin-MLL binding inhibition, fluorescein peptide. Fluorescence polarization, fluorescein-MLL peptide displacement from menin. FP activity change, % at 61.4 µM. 290,000 tested, under 10 active; inconclusive = falling polarisation curve, or a change in total fluorescence; inactive = total fluorescence flat and polarisation flat or rising; no compound was filed as active; the % refers to the polarisation; negative = inhibition;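 also: % of control where 0% means no effect; inhibitors lower the polarisation; unlabelled MLL peptide was the positive control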
ClpP mod – qHTS Assay for Activators of ClpP | ATP-dependent Clp protease proteolytic subunit (Bacillus subtilis (strain 168)), P80244 | purified B. subtilis ClpP, FRET peptide cleavage, 20 min | Potency, µM (doses to about 57.5 µM), for inactives: at the top dose activity change, negative = active | 340,000 tested, 1.9% active | AID 651965, 2013; active = well fitted falling curve with a large enough effect; inconclusive = small, poorly fitted or top-dose-only effect; inactive = no such curve, though single readings can be large or run the other way; also: potency is read from the fitted curve at half-maximal effect; the source files actives as falling curves though it sought activators and does not explain the sign; nearly all actives have a fitted effect of over 65% in size; many hits overshoot -100%
Target sequence (P80244 whole entry, looked up): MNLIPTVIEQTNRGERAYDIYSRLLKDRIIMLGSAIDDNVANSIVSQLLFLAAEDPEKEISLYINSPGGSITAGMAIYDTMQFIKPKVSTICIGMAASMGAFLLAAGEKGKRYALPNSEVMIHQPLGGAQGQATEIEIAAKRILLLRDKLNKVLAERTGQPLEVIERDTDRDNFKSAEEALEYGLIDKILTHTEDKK
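FRET quenching reversal measured ClpP activation: 10 microg/mL B. subtilis ClpP at pH 8 with the FRET-FV decapeptide, read at 430 nm after 320 nm excitation. The 20-min minus 0-min signal was scaled between DMSO/no-enzyme wells and ADEP (5.8 microM final).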
TRPV1 PAM – enhances activation of the human vanilloid receptor TRPV1. Q8NER1. TRPV1-expressing cells, Fluo-8 calcium influx, capsaicin EC20 potentiation; host cell line not named in the record; control for the full effect not named in the record. potentiation, % at 8.33 µM. 320,000 tested, 0.02% active; active means potentiation above 80%; inconclusive means 30% to 80%; inactive means below 30%; also: 0% is about no effect
Target sequence (Q8NER1 whole entry, looked up): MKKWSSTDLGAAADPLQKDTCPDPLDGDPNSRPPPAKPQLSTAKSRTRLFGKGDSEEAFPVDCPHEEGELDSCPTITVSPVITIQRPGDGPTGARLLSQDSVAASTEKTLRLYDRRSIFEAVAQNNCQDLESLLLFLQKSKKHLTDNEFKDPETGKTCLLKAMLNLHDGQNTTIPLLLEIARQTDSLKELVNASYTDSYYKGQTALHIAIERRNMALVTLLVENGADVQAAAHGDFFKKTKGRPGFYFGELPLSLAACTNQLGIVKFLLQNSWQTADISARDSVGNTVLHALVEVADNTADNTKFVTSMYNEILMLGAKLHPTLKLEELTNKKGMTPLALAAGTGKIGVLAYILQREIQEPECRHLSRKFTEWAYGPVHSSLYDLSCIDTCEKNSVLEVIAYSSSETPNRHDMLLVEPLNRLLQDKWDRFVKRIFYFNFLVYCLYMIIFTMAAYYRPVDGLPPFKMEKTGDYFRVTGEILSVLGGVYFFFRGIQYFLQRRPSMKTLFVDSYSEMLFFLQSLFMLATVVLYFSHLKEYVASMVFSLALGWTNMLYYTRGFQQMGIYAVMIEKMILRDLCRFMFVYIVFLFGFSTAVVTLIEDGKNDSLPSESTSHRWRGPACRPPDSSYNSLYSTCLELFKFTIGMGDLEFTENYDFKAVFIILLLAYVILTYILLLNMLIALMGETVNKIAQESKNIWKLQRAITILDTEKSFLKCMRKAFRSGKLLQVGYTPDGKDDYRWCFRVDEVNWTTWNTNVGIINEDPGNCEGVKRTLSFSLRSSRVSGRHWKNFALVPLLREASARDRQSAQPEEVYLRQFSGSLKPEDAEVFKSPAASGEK
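Cells expressing TRPV1 were dye-loaded with Fluo-8 and read kinetically: 10 s baseline, 3 min after compound (agonist portion), then 2 min after EC20 capsaicin (allosteric enhancer portion). Calcium-bound dye fluorescence at 480/520 nm.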
Sfp inh – inhibitors of Bacillus subtilis Sfp phosphopantetheinyl transferase | 310,000 tested, 3.5% active | AID 1490 | Potency, µM, for the others: max response, negative = inhibition, hits mostly inhibitors | Q9F4F7 | Biochemical Sfp PPTase activity, qHTS; active = well fitted inhibition curve with a large enough effect; inconclusive = small, poorly fitted or top-dose-only effect, or another doubt; inactive = no such curve, though single readings can be large or run the other way;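 also: the enzyme is Sfp with the accession as filed and its product quenches rhodamine fluorescence; potency is read from the fitted curve at half-maximal effect; 0% = enzyme reaction without inhibitor and -100% = no enzyme wells; top concentration of the series not given in the record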
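Step 1, compound plus 15 nM Sfp-PPTase, 15 min, room temperature. Step 2, add rhodamine-CoA (5 uM) and BHQ-2-YbbR (12.5 uM). Step 3, read 525/598 nm fluorescence at 0 and 30 min.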
gsp antagonist – gsp mutant antagonism | gsp-mutant cells, cAMP HTRF, 30 min; control for the full effect not named in the record | Potency, µM (top dose mostly 76.9 µM), without a hit: at the highest dose activity change, negative = inhibition, usual class: inhibitors | 340,000 tested, 0.4% active; active = falling curve of any shape with a large fitted effect; inconclusive = falling curve, mostly with a smaller effect; inactive = flat or rising curve; cell line not stated here;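 also: intracellular cAMP measured with PDE inhibitor Ro 20-1724 present during compound exposure; potency is read from the fitted curve at half-maximal effect; % is scaled to controls: 0 for no effect and ±100 for the full control effect; nearly all actives have a fitted effect of over 65% in size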
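Measurement of cellular cAMP by homogeneous time-resolved fluorescence following a 30 min compound exposure at 37C. The PDE inhibitor […] was present throughout; the assay buffer was DPBS with 0.05% BSA and 0.005% Tween 20.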
gsp ag – agonists of gsp mutant (McCune-Albright syndrome) | gsp mutant cells, cAMP HTRF, 30 min; control for the full effect not named in the record | Potency, µM (series often up to 76.9 µM), for the others: at the highest dose activation (cAMP increase), usual class: activators | 340,000 tested, 0.13% active; active = well fitted activation curve with a large enough effect; inconclusive = small, poorly fitted or top-dose-only effect, or another doubt; inactive = no such curve, though single readings can be large or run the other way; cell line not stated here;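 also: phosphodiesterase inhibitor Ro 20-1724 added with compounds to block cAMP breakdown; potency is read from the fitted curve at half-maximal effect; nearly all actives have a fitted effect of over 60% in size; about a fifth of the inactives were tested at one dose only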
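Cells stably selected in G418 were plated at 2000/well, grown 16-24 hr, then given compounds in DMSO with the PDE inhibitor […] (300 uM solution added) for 30 min at 37C; cAMP was read by HTRF.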
CtBP-E1A inh – inhibitors of CtBP/E1A interaction | AID 651724 | activity change, % (no concentration beside the values) | AlphaScreen GST-E1A/His-CtBP binding, 1536-well; active compounds read low; control for the full effect not named in the record | 340,000 tested, 0.49% active; in the data active means activity change below about -65%; inconclusive means about -30% to -65%; inactive means above about -30%; also: % is scaled to controls: 0 for no effect and ±100 for the full control effect
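In 5 uL wells, 23 nL compound meets equimolar GST-E1A and His-CtBP (5X stock 125 nM each) for 2 h, 37 °C. Beads (5X, 50 ug/mL) then 1 h, 37 °C, dark.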
An asterisk follows results filed as active; ? = inconclusive; · = no result given; [ ] = remark or other dose.

SMILES	Menin-MLL FL inh	ClpP mod	TRPV1 PAM	Sfp inh	gsp antagonist	gsp ag	CtBP-E1A inh
CC1CCN(c2nc3ccc(C(=O)NCCCN4CCCCC4C)cc3s2)CC1 (configuration not stated)	-0.5	4.7%	-7	4%	6%	-1%	-4
CCN1CCCC1CNCC(=O)Nc1ccc(OC(F)(F)F)cc1 (configuration not stated)	4.6	·	1	?	8%	0%[15.4 µM]	-1
CCCCOc1ccc(Cl)cc1CSc1n[nH]c(C)n1	-3.3	1.1%	-4	4%	?	6%	-1
CC(CC(=O)N1CCN(C(=O)c2ccccc2)CC1)c1ccccc1 (configuration not stated)	0.3	-17%	?	2%	5%	7%[15.4 µM]	-12
N#C/C(=C\c1ccncc1)C(N)=O	0.1	·	14	21%	15%	-6%	2
COc1ccc(NC(=O)CSc2nc3[nH]ncc3c(=O)[nH]2)cc1OC	·	0.7%	4	·	3%	?	5
Cc1ccc(/C=C(\NC(=O)c2ccccc2)C(=O)NC(Cc2ccccc2)C(=O)O)cc1 (configuration not stated)	9.0	-15%	0	21%	6%	-4%	10
CC(=O)Nc1ccc(NC(=O)C(C)OC(=O)c2ccc(C)s2)cc1 (configuration not stated)	2.2	·	-1	1%	9%	-6%[15.4 µM]	3
O=C(CSc1nc2ccccc2[nH]1)NC1CCS(=O)(=O)C1 (configuration not stated)	1.0	0.5%	9	24%	7%	-19%	10
CCN(CC)c1ccc(C(=O)NNC(=O)C2CSC3(C)CCC(=O)N23)cc1 (configuration not stated)	·	-11%	-20	·	10%	-36%[inhibitor]	-20
Cc1nc2ccc(C(=O)N/N=C/c3ccccc3O)cc2[nH]1	-0.6	·	-7	20%	-1%	25%	-88*
COC(=O)c1ccc(NC(=O)CSc2nnc(COc3c(C)cccc3C)o2)cc1	1.5	1.4%	3	16%	6%	24%	6
CC(=O)c1ccc(N2CCN(C(=O)CCS(=O)(=O)c3ccc4c(c3)NC(=O)CS4)CC2)cc1	·	-14%	14	17%	-1%	2%	·
O=C(CN1C(=O)NC2(CCCC2)C1=O)NNC(=O)c1ccc(Br)cc1	·	-0.7%	?	·	10%	6%	0
Cc1cccc(NC(=S)N(CCCN(C)C)Cc2cc3cc4c(cc3[nH]c2=O)OCO4)c1	-5.7	·	-6	11%	6%	-3%[15.4 µM]	8
Cc1ccc(-c2nc(SCC(=O)NCC3CCCO3)c(-c3ccccc3)[nH]2)cc1 (configuration not stated)	1.2	-16%	-41	-20%	-12%	7%	-13
CSc1cccc(NC(=S)N2CCC(N(C)C3CCCCC3)CC2)c1	-2.1	·	-15	-17%	7%	23%[15.4 µM]	-7
CC1CN(C(=S)NC2CCCC2)CC(C)O1 (configuration not stated)	-2.8	-1.6%	1	-2%	3%	-4%	-5
C[C@@H]1NC(=O)c2cc([N+](=O)[O-])cc(F)c2NCCC[C@@H](C(N)=O)NC(=O)[C@H](CC(N)=O)NC1=O	2.9	-0.2%	14	17%	6%	·	6
Cc1ccc(NC(=S)N(CCCN2CCOCC2)Cc2ccco2)cc1	-4.0	-3.3%	24	-29%	3%	3%	-2
CC(=O)c1c(C)[nH]c(C(=O)Nc2cccc(C)n2)c1C	·	-2.6%	-6	14%	-8%	-1%	-2
COc1ccccc1C1C(C(=O)c2sc(C)nc2C)=C(O)C(=O)N1CCN1CCOCC1 (configuration not stated)	-0.1	0.3%	17	-4%	-9%[15.4 µM]	?	6
O=C(c1cc(-c2ccc(F)cc2)on1)N1CCCCCC1	-4.2	-2.1%	-1	8%	-8%	-11%[15.4 µM]	8
Cc1ccc(C(=O)c2cnc3cc4c(cc3c2S(=O)(=O)c2ccccc2)OCCO4)cc1	4.6	0.2%	29	5%	-31%	20%	1
O=C1CC(SCc2nc3ccccc3[nH]2)C(=O)N1c1cccc(Cl)c1 (configuration not stated)	6.3	3.4%	-3	-1%	-11%	9%	-18
SMILES	Menin-MLL FL inh	ClpP mod	TRPV1 PAM	Sfp inh	gsp antagonist	gsp ag	CtBP-E1A inh
COc1ccc(S(=O)(=O)NC(C)C(=O)Nc2ccccc2F)cc1 (configuration not stated)	-1.0	0.7%	-1	-17%	0%	-7%	6
Oc1oc(-c2ccccc2)nc1C=NCc1ccccc1	-1.6	-0.2%	-8	-8%	0%	-21%	-12
Cc1ccc(S(=O)(=O)c2cccc(S(=O)(=O)N3CCCC3)c2)cc1S(=O)(=O)N1CCCC1	0.9	-1.4%	-12	11%	?	8%	-3
Cc1ccc(S(=O)(=O)N(CC(=O)Nc2cccc([N+](=O)[O-])c2)C2CCCCC2)cc1	-1.6	-1.3%	-6	4%	-16%	2%	-11
CCOCCn1c(SCC)nc2c1c(=O)[nH]c(=O)n2C	4.2	0.0%	-2	?	-1%	0%	-2
O=C(Nc1ccc(NC(=O)c2cccs2)cc1)c1cccnc1	-6.7	2.7%	4	16%	3%	-82%[inhibitor]	·
C=CCN1C(=O)C(Cc2ccc(Br)cc2)S/C1=N\N=C\c1ccco1 (configuration not stated)	5.4	-2.7%	24	-6%	4%	-5%	-2
Nc1nc(-c2ccc(Cl)cc2)nc(-c2ccc(Cl)cc2)n1	3.9	-0.2%	13	4%	8%	-18%	0
COc1ccccc1OCCNC(=O)c1ccccc1OCc1c(C)noc1C	·	0.2%	-14	·	8%	?	·
CC(C)c1cc(C(=O)N2CCCC(N3CCN(c4ccccc4F)CC3)C2)nc(N)n1 (configuration not stated)	·	-19%	?	12%	-4%	1%	1
Cc1cc(C)c(OCC(=O)NCCCn2nc(C)cc2C)c(C)c1	·	0.9%	2	·	-11%	2%	1
CCOc1ccc(OCc2ccc(C(=O)NC(C)(C)C)o2)cc1	-0.6	-3.0%	?	-5%	-14%	-36%[15.4 µM]	-17
CC1(c2cc(F)ccc2F)NC(=O)N(CC(=O)Nc2cccc(S(=O)(=O)N3CCCC3)c2)C1=O (configuration not stated)	·	1.8%	4	·	4%	-64%[inhibitor]	0
O=C(Oc1ccc(N(C(=O)c2ccncc2)S(=O)(=O)c2ccc(Cl)cc2)cc1)c1ccncc1	-0.8	0.6%	-1	12%	0%	-8%	-9
Nc1ccn(CCCNCC(c2ccccc2)c2ccccc2)c(=O)n1	·	-0.9%	·	·	·	3%	-7
CCc1ccc(OC(C)C(=O)N(Cc2ccccc2)C2CCS(=O)(=O)C2)cc1 (configuration not stated)	-0.9	·	1	11%	-14%	?	2
Cc1cccc(C(=O)Oc2cc(C)[nH]c(=O)c2[N+](=O)[O-])c1	·	1.3%	2	13%	7%	4%	·
CCCSc1nnc(NC(=O)c2ccco2)s1	0.0	-3.2%	?	8%	-3%	-65%[inhibitor]	-8
CN(Cc1cccnc1)C(=O)CCCc1c[nH]c2ccccc12	-5.4	·	13	7%	-43%	5%[15.4 µM]	-13
CCC(C)(C)n1nnnc1C(c1cc2cc(OC)ccc2[nH]c1=O)N1CCc2ccccc21 (configuration not stated)	7.9	1.2%	-18	-38%	-19%	5%	-20
Cc1ccc(S(=O)(=O)N(C)C)cc1NC(=O)COC(=O)/C=C/c1ccc(F)cc1	·	-1.0%	17	·	8%	-53%[inhibitor]	-4
COc1ccccc1N1CCN(C(=O)c2cccc(S(=O)(=O)Nc3ccccc3F)c2)CC1	·	-2.6%	·	·	?	11%	-19
O=C(Nc1ccon1)c1cc(-c2ccccc2)nc2ccccc12	1.0	-23%	?	-1%	-4%[15.4 µM]	7%	-5
CCCN(C1CCS(=O)(=O)C1)S(=O)(=O)c1ccc2ccccc2c1 (configuration not stated)	·	-1.3%	6	·	-10%	-5%	9
O=C(O)CC1(CC(=O)NCc2ccncc2)CCCCC1	-0.3	0.8%	6	12%	-4%	8%[15.4 µM]	1
SMILES	Menin-MLL FL inh	ClpP mod	TRPV1 PAM	Sfp inh	gsp antagonist	gsp ag	CtBP-E1A inh
CCC1(c2ccc(F)cc2)NC(=O)N(CC(=O)Nc2ccc(C(N)=O)cc2)C1=O (configuration not stated)	4.6	·	7	22%	1%	-14%	-12
CC(C)(C)OC(=O)N1CCC(CC2CC(c3ccc(Cl)cc3)=NO2)(C(=O)NCC2CCCCC2)CC1 (configuration not stated)	0.2	-3.9%	19	15%	-16%	1%	0
NC(=O)COc1ncnc2scc(-c3ccc(F)cc3)c12	9.6	2.3%	-2	1%	7%	-5%[15.4 µM]	2
CC(C)(C)n1ncc2c(=O)n(CC(=O)N3CCCCC3)cnc21	2.3	·	-8	20%	-1%	-6%[15.4 µM]	4
FC(F)(F)c1ccc2c(c1)[nH]c(=S)n2C1CC1	-1.5	·	18	?	10%	-18%[15.4 µM]	-8
CCC(Oc1cc(Cl)ccc1Cl)C(=O)NNC(=O)CCC(=O)O (configuration not stated)	6.0	-4.6%	7	9%	13%	-35%[inhibitor]	-16
C#CCOCCOCCOCCNc1nc(N2CCN(C(=O)[C@H](CCC(=O)O)n3cc(C(N)[C@H](C)CC)nn3)CC2)nc(N2CCN(C(=O)[C@H](CCC(=O)O)n3cc(C(N)[C@H](C)CC)nn3)CC2)n1 (some centres not stated)	-2.5	2.7%	-1	3%	2%	·	0
CS/C(N)=N/N=C/c1ccc2c(c1)OCO2	1.5	?	-3	10%	9%	-1%[15.4 µM]	0
Cc1ccc(-c2nn(C)c(=O)c3ccccc23)cc1S(=O)(=O)N1CCCC1	3.1	0.3%	-14	2%	6%	-9%	-1
CCOC(=O)Cc1csc(NC(=O)CN2CCCCC2)n1	0.1	-1.7%	10	1%	9%	-4%[15.4 µM]	-14
O=C(Nc1ccc(C(=O)N2CCOCC2)cc1)C1CCCC1	·	1.0%	·	·	10%	·	7

4 entries from above, bar-delimited:
structure | Menin-MLL FL inh | ClpP mod | TRPV1 PAM | Sfp inh | gsp antagonist | gsp ag | CtBP-E1A inh
CCC(Oc1cc(Cl)ccc1Cl)C(=O)NNC(=O)CCC(=O)O (configuration not stated) | 6.0 | -4.6% | 7 | 9% | 13% | -35%[inhibitor] | -16
CS/C(N)=N/N=C/c1ccc2c(c1)OCO2 | 1.5 | ? | -3 | 10% | 9% | -1%[15.4 µM] | 0
CC(C)(C)n1ncc2c(=O)n(CC(=O)N3CCCCC3)cnc21 | 2.3 | · | -8 | 20% | -1% | -6%[15.4 µM] | 4
CCOC(=O)Cc1csc(NC(=O)CN2CCCCC2)n1 | 0.1 | -1.7% | 10 | 1% | 9% | -4%[15.4 µM] | -14
